Env fusion inh: inhibitors of HIV-1 Env-driven cell-cell fusion, primary screen, HeLa-JRFL effector, CEM21 target cells, luciferase; inhibition, % at 12.3 µM; 360,000 tested, 1.1% active; AID 651610, 2012;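 active = mean replicate inhibition score of at least 50 and every replicate individually at or above 50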;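 note: 0% = plate neutral controls and 100% = maraviroc near 300 nM; one replicate is shown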
CSC inhib: cancer stem cell viability inhibitors, primary screen, luminescence | cancer stem cell-like cells viability | inhibition, % at 7.5 µM | 300,000 tested, 1.1% active;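 active = mean at 75% or more and at least half the replicates too; tested in HMLE shEcad cells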;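 note: 0% = median of negative and 100% = median of positive control wells; the first replicate is given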
PABP FP inh: PABP poly(A) RNA binding inhibitors, primary screen, biochemical, fluorescence polarization, uHTS. inhibition, % at 35 µM. 290,000 tested, 1% active. AID 2014, 2009. Polyadenylate-binding protein 1 (Homo sapiens), P11940;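 active = 50% or more with normal probe brightness, or confirmed in later tests; about a fifth of its hits are not listed in these tables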;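 note: calls also rest on retests at 20 µM and on dose response follow-up; controls were probe without protein and protein plus probe with vehicle; some compounds called inactive have numbers as strong as hits; many hits fall short of the cut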
Target sequence (P11940 whole entry, looked up): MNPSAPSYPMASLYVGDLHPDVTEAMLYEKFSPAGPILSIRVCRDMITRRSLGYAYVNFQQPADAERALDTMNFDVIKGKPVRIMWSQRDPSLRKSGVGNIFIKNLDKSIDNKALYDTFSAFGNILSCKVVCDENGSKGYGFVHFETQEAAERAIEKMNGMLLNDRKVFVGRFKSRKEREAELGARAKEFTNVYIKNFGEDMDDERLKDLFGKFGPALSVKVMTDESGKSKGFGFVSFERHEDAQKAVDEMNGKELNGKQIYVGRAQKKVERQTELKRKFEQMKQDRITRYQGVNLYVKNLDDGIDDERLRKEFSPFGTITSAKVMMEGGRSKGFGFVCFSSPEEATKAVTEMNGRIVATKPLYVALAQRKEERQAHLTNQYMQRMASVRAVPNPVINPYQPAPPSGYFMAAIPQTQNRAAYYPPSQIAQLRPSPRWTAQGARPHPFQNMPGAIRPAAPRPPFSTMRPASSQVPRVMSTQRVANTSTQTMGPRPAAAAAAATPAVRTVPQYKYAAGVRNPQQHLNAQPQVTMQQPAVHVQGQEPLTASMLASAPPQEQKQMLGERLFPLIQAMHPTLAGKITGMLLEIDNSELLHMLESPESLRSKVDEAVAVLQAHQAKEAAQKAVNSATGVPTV
eIF4H FP inh: human eIF4H binding inhibitors, primary screen, translation initiation inhibitor project, biochemical, uHTS, fluorescence polarization; Eukaryotic translation initiation factor 4H (Homo sapiens), Q15056; eIF4H fluorescence polarization binding assay; inhibition, % at 35 µM; 290,000 tested, 0.94% active;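 active = 50% or more with normal probe brightness, or confirmed in later tests; about a fifth of its hits are not listed in these tables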;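 note: calls also rest on retests at 20 µM and on dose response follow-up; 0% = protein and probe with vehicle and 100% = probe without protein; strong numbers were not always called active; many hits fall short of the cut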
MT1-MMP act inh: blockers of MT1-MMP proenzyme processing, primary screen, HT1080 RFP-PRO-GFP cells, GFP/RFP fluorescence. GFP/RFP ratio fluorescence, overnight; percent of plate control window, DMSO zero. GFP/RFP ratio change, % at 20 µM. 360,000 tested, 0.061% active. AID 651647, 2012;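 active = GFP/RFP ratio change of at least 30% with cell ATP level not reduced by more than half and red fluorescence within 50% of control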; note: strong numbers were not always called active
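Assay system: HT1080 cells carrying an RFP-PRO-GFP reporter | Dosing: Single dose of 20 µM compound, 1% DMSO final | Incubation: Cells overnight before dosing, compound overnight, 37 °C, 5% CO2 | Evaluation: GFP/RFP fluorescence ratio | Control set: DMSO and RFP-L50D-GFP cell wells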
Rce1 inhib: yeast Rce1p protease inhibitors, primary screen, biochemical, fluorescence, cell-free homogeneous | CAAX prenyl protease 2 (Saccharomyces cerevisiae (strain ATCC 204508 / S288c)), Q03530 | yeast membranes, quenched prenylated peptide cleavage fluorescence | calls only | 290,000 tested, 0.27% active | AID 2563, 2010;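 active = fall in fluorescence gain of 50% or more versus controls, with final raw signal at or below 3038400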;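 note: plate controls were neutral control wells for no effect and wells lacking membranes for full effect; tested at 10 µM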
Yeast UUG start: modulators of yeast start codon fidelity, primary screen, whole organism, S. cerevisiae, single point, plate reader. S. cerevisiae UUG-firefly luciferase reporter, luminescence/redox ratio. AID 602363, 2012. 350,000 tested, 0.13% active. activity score, % at 18.7 µM;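 active = replicate mean at a twofold rise or more, about +100% in these data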;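 note: firefly luciferase made from a UUG start codon reports start codon fidelity; reporter light over untreated wells divided by growth signal over untreated wells; some hits fall short of that in this replicate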
eIF4H FP inh retest: further read-out of eIF4H FP inh, marked with its call; inhibition, %; compound at 20 µM; confirmation average;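 mean of two retest wells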
PABP FP inh retest: recorded beside PABP FP inh, whose call it bears; inhibition, %; compound at 20 µM; confirmation repeats;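 mean of two retest wells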
MT1-MMP act inh RFP: second read-out of MT1-MMP act inh, no call of its own (marks repeat the call); RFP signal change, %; measured here: RFP expression control read;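 0 = vehicle wells; hits needed this value within 50% of zero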
Numbers without * were called inactive; i = inactive; . = no result given; + = active, no number; [ ] = another dose, or the depositor's remark.

SMILES	Env fusion inh	CSC inhib	PABP FP inh	eIF4H FP inh	MT1-MMP act inh	MT1-MMP act inh RFP	Rce1 inhib	Yeast UUG start	others
CC(C)Sc1nc2ccccc2n1CC(N)=O	-35	-16	2	11	3	1	i	25
COc1ccccc1N1C(=O)CC(Sc2nccc(C)n2)C1=O (stereo unspecified)	-82	-10	4	0	-8	1	i	-26
COCCn1c(N)c(N(Cc2ccccc2)C(=O)CN2C(=O)NC(C)(c3ccccc3)C2=O)c(=O)[nH]c1=O (stereo unspecified)	-2	0	14	-44	-3	1	i	-14
COc1ccc(C(=O)NCCCOC(=O)c2ccc(OC)cc2)cc1	0	2	-4	5	0	0	i	0
CC1CCC2(CC1)Nc1ccccc1C(=O)N2c1ccccc1 (stereo unspecified)	-28	-10	-2	-8	-4	6	i	-2
CS(=O)(=O)c1ccc(C(=O)NC2CCCc3ccccc32)cc1 (stereo unspecified)	.	5	-9	12	0	4	i	.
Cc1ccc(N(CC(=O)NCc2ccc(F)cc2)C(=O)c2csnn2)c(C)c1	-1	-8	-7	-11	0	0	i	.
Cc1cc(C)c(C(=O)C[n+]2cccc(C(N)=O)c2)c(C)c1	-2	0	-4	4	-1	2	i	-8
CC(C)(C)C(=O)Nc1ccccc1C(=O)Nc1cccnc1	.	.	2	1	1	0	i	-16
COc1ccc(O)c(/C=c2/sc3nc4cc(C)c(C)cc4n3c2=O)c1	-9	.	33	-13	2	3	i	-20
COc1ccc(C(=O)C(C)OC(=O)c2cccc(S(=O)(=O)Nc3cc(Cl)c(OC)cc3OC)c2)cc1 (stereo unspecified)	.	.	-8	2	0	-19	i	.
Cc1cc(OCC(O)CN2CCc3ccccc3C2)ccc1Cl (stereo unspecified)	17	12	5	4	0	2	i	-3
O=C(C1=C(O)C(=O)N(CCCN2CCOCC2)C1c1ccncc1)c1cc2ccccc2o1 (stereo unspecified)	.	.	-2	-13	.	.	i	.
COc1ccc2cc(S(=O)(=O)N3CCCCCC3)ccc2c1	7	12	-6	-6	3	-2	i	.
CCCn1cc(NC(=O)c2cc3n(n2)C(C(F)(F)F)CC(c2ccccc2)N3)cn1 (stereo unspecified)	15	11	80	-6	4	-3	i	-21	eIF4H FP inh retest=6;PABP FP inh retest=9
Cc1onc(-c2c(F)cccc2Cl)c1C(=O)N1CCc2ccccc2C1	.	-6	-2	1	-1	0	i	.
CCCC[C@@H]1C[C@H]1[C@@H](NC(=O)c1cccs1)c1ccc(Cl)cc1	.	28	-8	-2	.	.	i	.
Cc1ccc(-c2csc(NC(=O)Cn3[nH]c(=O)c4ccccc4c3=O)n2)cc1	-24	29	4	-2	-2	-3	i	.
CC(Sc1nnc(C(C)Oc2ccc(F)cc2)o1)C(=O)NCc1ccc2c(c1)OCO2 (stereo unspecified)	1	.	.	.	0	1	.	-1
O=C(C1=C[C@@H](c2ccc(Br)cc2)C[C@@H](OCc2ccc(CO)cc2)O1)N1CCN(Cc2ccccc2)CC1	-15[16.7 µM]	40	7	8	-3	-7	i	-6
COc1ccc(-c2oc(=O)c3cc(OC)c(OC)cc3c2-c2ccc3c(c2)OCO3)cc1	-3	9	.	.	3	-3	.	-8
O=P1(O)CC2=C(CC=CC2)C1	-5	.	.	.	-4	3	.	-13
CCN1C[C@@H]2[C@@H]3C(=O)N(Cc4ccccc4)C(=O)[C@@H]3[C@](Cc3ccccc3)(C1=O)N2C(=O)c1ccc(Br)cc1	13	.	.	.	-8	-3	.	9
Cc1ccc(CN(C)C(=O)c2cc(COc3ccc(F)cc3Cl)on2)o1	-16	8	2	11	1	0	i	4
CSc1nc2sc3c(c2c(=S)[nH]1)CC(C)(C)OC3	-3	-1	-1	8	-4	1	i	-23
COc1cccc(Nc2ccc(N3CCCCC3)cc2)c1OC	-82	17	.	.	-16	-9	.	-12
COc1ccc2c(C)c(C(=O)O)oc2c1	-31	-6	2	-8	1	1	i	-7
O=C1C=C(NC2CCCC2)CC(c2ccccc2)C1 (stereo unspecified)	-13	3	-15	2	1	0	i	.
O=C(COC(=O)C1CC(=O)N(c2nc(-c3ccccc3)cs2)C1)c1ccccc1 (stereo unspecified)	-13	-4	5	0	1	4	i	-12
CCN(C(=O)CSc1nc2cc(C(F)(F)F)ccc2n1Cc1ccccc1)C1CCS(=O)(=O)C1 (stereo unspecified)	35	-10	-1	-7	-4	0	i	-7

Some of these compounds in order of molar mass, smallest number first.
SMILES	Env fusion inh	CSC inhib	PABP FP inh	eIF4H FP inh	MT1-MMP act inh	MT1-MMP act inh RFP	Rce1 inhib	Yeast UUG start	others
O=P1(O)CC2=C(CC=CC2)C1	-5	.	.	.	-4	3	.	-13
O=C1C=C(NC2CCCC2)CC(c2ccccc2)C1 (stereo unspecified)	-13	3	-15	2	1	0	i	.
CSc1nc2sc3c(c2c(=S)[nH]1)CC(C)(C)OC3	-3	-1	-1	8	-4	1	i	-23
COc1ccc2cc(S(=O)(=O)N3CCCCCC3)ccc2c1	7	12	-6	-6	3	-2	i	.
CCCC[C@@H]1C[C@H]1[C@@H](NC(=O)c1cccs1)c1ccc(Cl)cc1	.	28	-8	-2	.	.	i	.
Cc1onc(-c2c(F)cccc2Cl)c1C(=O)N1CCc2ccccc2C1	.	-6	-2	1	-1	0	i	.
Cc1ccc(CN(C)C(=O)c2cc(COc3ccc(F)cc3Cl)on2)o1	-16	8	2	11	1	0	i	4
Cc1ccc(-c2csc(NC(=O)Cn3[nH]c(=O)c4ccccc4c3=O)n2)cc1	-24	29	4	-2	-2	-3	i	.
O=C(COC(=O)C1CC(=O)N(c2nc(-c3ccccc3)cs2)C1)c1ccccc1 (stereo unspecified)	-13	-4	5	0	1	4	i	-12
CCCn1cc(NC(=O)c2cc3n(n2)C(C(F)(F)F)CC(c2ccccc2)N3)cn1 (stereo unspecified)	15	11	80	-6	4	-3	i	-21	eIF4H FP inh retest=6;PABP FP inh retest=9
COc1ccc(-c2oc(=O)c3cc(OC)c(OC)cc3c2-c2ccc3c(c2)OCO3)cc1	-3	9	.	.	3	-3	.	-8
CC(Sc1nnc(C(C)Oc2ccc(F)cc2)o1)C(=O)NCc1ccc2c(c1)OCO2 (stereo unspecified)	1	.	.	.	0	1	.	-1
O=C(C1=C(O)C(=O)N(CCCN2CCOCC2)C1c1ccncc1)c1cc2ccccc2o1 (stereo unspecified)	.	.	-2	-13	.	.	i	.
O=C(C1=C[C@@H](c2ccc(Br)cc2)C[C@@H](OCc2ccc(CO)cc2)O1)N1CCN(Cc2ccccc2)CC1	-15[16.7 µM]	40	7	8	-3	-7	i	-6
CCN1C[C@@H]2[C@@H]3C(=O)N(Cc4ccccc4)C(=O)[C@@H]3[C@](Cc3ccccc3)(C1=O)N2C(=O)c1ccc(Br)cc1	13	.	.	.	-8	-3	.	9

(list continues)
SMILES	Env fusion inh	CSC inhib	PABP FP inh	eIF4H FP inh	MT1-MMP act inh	MT1-MMP act inh RFP	Rce1 inhib	Yeast UUG start	others
Cc1ccnc(NC(=O)c2cc3cc(F)ccc3s2)c1	-164	18	8	10	-6	2	i	-32
COc1ccc(S(=O)(=O)N2CCCC(C(=O)NCc3ccc(F)cc3)C2)cc1 (stereo unspecified)	10	.	-8	-11	-15	-12	i	-19
O=C(c1ccc(OC2CCN(CCc3ccccc3)CC2)cc1)N1CCCC(CCCO)C1 (stereo unspecified)	11	18	-4	-12	-8	-2	i	5
O=C(c1cnn2c(C(F)F)cc(C3CC3)nc12)N1CCCC1	-9	-5	6	-7	3	8	i	-11
COc1ccccc1-c1coc2c(CN3CCOCC3)c(O)ccc2c1=O	-19	8	-7	8	1	0	+	0
CCC(C)[C@H](NC(=O)NC1CCN(Cc2ccccc2)CC1)C(=O)OC (stereo partly specified)	-24	1	7	-4	5	5	i	-10
O=C(Cn1nc(-c2ccccc2)c2ccccc2c1=O)Nc1cccc(O)c1	-3	-13	-2	-17	-3	3	i	.
CC(C)(C)Nc1c2ccccc2nc2ccccc12	-11	0	-10	-5	5	-5	i	-1
O=C(CCCN1C(=O)/C(=C/c2cccs2)SC1=S)Nc1ccccn1	6	16	-14	7	0	1	i	.
Cc1ccc(NC(=O)COC(=O)C2COc3ccccc3O2)cc1 (stereo unspecified)	1	-12	.	.	0	4	.	-22
COc1ccc2c(=O)c(Oc3ccc(C(=O)O)cc3)c(C(F)(F)F)oc2c1	-12	4	2	0	1	1	i	.
CCOC(=O)C1(P(=O)(c2ccccc2)c2ccccc2)CCC1	.	0	-11	-3	-1	2	i	-7
O=C([C@@H]1CC=C[C@@H]2CCN(C3CCCCC3)C(=O)[C@@H]21)N1CCN(c2ccccc2)CC1	9	-8	.	.	2	-5	i	-7
N#Cc1ccc(N2C(=O)[C@@H]3C(C(=O)c4ccc5ccccc5n4)=NN[C@@H]3C2=O)cc1	15	-29	13	-1	-2	7	i	-9
O=C(c1ccccc1)N1CCN(C2C3CC4CC(C3)CC2C4)CC1 (stereo unspecified)	.	40	-4	-3	3	3	i	-10

Overlap with the part before: 2 entries, then new ones.
SMILES	Env fusion inh	CSC inhib	PABP FP inh	eIF4H FP inh	MT1-MMP act inh	MT1-MMP act inh RFP	Rce1 inhib	Yeast UUG start	others
N#Cc1ccc(N2C(=O)[C@@H]3C(C(=O)c4ccc5ccccc5n4)=NN[C@@H]3C2=O)cc1	15	-29	13	-1	-2	7	i	-9
O=C(c1ccccc1)N1CCN(C2C3CC4CC(C3)CC2C4)CC1 (stereo unspecified)	.	40	-4	-3	3	3	i	-10
Cc1cccc(N(C(=O)Nc2ccccc2)C2=NCC(C)S2)c1 (stereo unspecified)	2	-6	4	-5	2	4	i	-9
COc1ccccc1NC(=O)N1CCC(NC(=O)C(Cc2ccccc2F)NC(C)=O)CC1 (stereo unspecified)	0	1	7	-1	3	0	i	-5
CCN(CC)S(=O)(=O)c1cccc(-c2n[nH]c(=S)n2/N=C/c2ccc(C(=O)OC)cc2)c1	-8	-7	-1	26	5	-2	i	.
COc1ccccc1-c1ccc([C@@H]2C[C@H]3[C@@H](CN2)CON3C)cc1	2	.	.	.	-1	4	.	-3
Cc1noc(C)c1C(=O)N1CCC1(C)C(=O)NS(=O)(=O)c1cccc(Cl)c1 (stereo unspecified)	4	.	.	.	2	5	.	-12
CN=c1scc(-c2cc(OC)ccc2OC)n1/N=C/c1c(C)[nH]c2ccccc12	-48	13	-33	-14	-20	4	i	.
COc1ccc(Cl)cc1NC(=O)Cn1c(=O)oc2ccccc21	5	-5	9	-6	0	-2	i	-1
CC(C)(C)c1ccc(-c2ccc3c(c2)S(=O)(=O)c2ccccc2C3=O)cc1	-37	13	.	.	2	-2	i	7
CCn1nc(NC(=O)COC)c2cc3cccc(C)c3nc21	17	3	0	-4	-1	-2	i	0
CCn1c(SCC(=O)N2CCCCC2)nc2c1c(=O)n(C)c(=O)n2C	7	-5	9	4	-2	0	i	-9
COc1ccc(N2CCN(S(=O)(=O)c3ccc(Cl)s3)CC2)cc1	-9	16	-12	-9	14	5	i	.
CCOc1ccc(N(CC(=O)NCc2ccccc2)S(=O)(=O)c2ccc(C)cc2)cc1	11	.	4	0	0	1	i	9
COc1ccc(OCCCC(=O)Nc2ccc3c(c2)OCO3)cc1	-65	3	6	-6	3	-5	i	-4
Cc1cc(NC(=O)/C=C/c2cccc(F)c2)n(-c2nc3ccccc3[nH]2)n1	-5	19	6	15	2	1	i	.
Cc1cc(CNC(=O)C2CCC(=O)N(CCc3cccc(F)c3)C2)on1 (stereo unspecified)	3	-9	.	.	-2	2	i	-18

Screens from PubChem.
